# NS1 inh: qHTS Assay for Inhibitors of Influenza NS1 Protein Function; S. cerevisiae slowed by influenza A NS1, growth recovery by OD600; Potency, µM (titrated, usually from 46.1 µM), without a hit: top-dose activity, positive = more growth; actives 0.4% (n = 270,000); AID 2326, 2010; also: actives are rising curves; nearly all actives have a fitted effect of over 50% in size
#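 A cell-based growth assay was used: compounds that relieve NS1-induced slow growth of budding yeast raise OD600. Assay medium was yeast nitrogen base with ammonium sulphate and -URA supplement, pH 6.0, with 2% galactose.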
# SARS PLpro yeast: qHTS of Yeast-based Assay for SARS-CoV PLP. S. cerevisiae expressing SARS-CoV PLpro, growth rescue; control for the full effect not named in the record. Potency, µM (top dose mostly 32.9 µM), inactives show at the top dose activity, positive = growth rescue. actives 0.19% (n = 330,000). AID 485353, 2010; also: 0% is about no effect; nearly all actives have a fitted effect of over 55% in size; growth read by luminescence after 48 h
# Marburg entry inh: qHTS for inhibitors of binding or entry into cells for Marburg Virus | AID 540276, 2011 | Potency, µM (top dose mostly 37.8 µM), inactives show at the highest dose activity change, negative = inhibition, hits mostly inhibitors | Marburg virus pseudotyped entry inhibition, cell reporter; control for the full effect not named in the record; about a third of the inactives were read at about 46 µM | actives 1.8% (n = 300,000); active = well fitted inhibition curve with a large enough effect; inconclusive = small, poorly fitted or top-dose-only effect, or effect the other way; inactive = flat fitted curve, though single readings scatter; tested in HEK293 cells; about a fifth of its hits are not listed in these tables; also: % is scaled to controls: 0 for no effect and ±100 for the full control effect; luciferase read-out
# Cruzain Triton: qHTS Assay for Promiscuous and Specific Inhibitors of Cruzain (with detergent). Cruzipain (Trypanosoma cruzi), P25779. purified cruzain, Z-FR-AMC fluorescence, 0.01% Triton. Potency, µM, without a hit: max response, negative = inhibition, usual class: inhibitors. actives 0.43% (n = 200,000). AID 1478, 2009; active = well fitted curve in the direction sought with a large enough effect; inconclusive = small, poorly fitted or top-dose-only effect, or another doubt; inactive = no such curve, though single readings can be large; an effect the other way counts as inactive or inconclusive;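 also: plate controls were neutral wells for no effect and buffer without enzyme for full effect; nearly all actives have a fitted effect of over 40% in size; top concentration of the series not given in the record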
# Target sequence (P25779 123-467 limits assumed): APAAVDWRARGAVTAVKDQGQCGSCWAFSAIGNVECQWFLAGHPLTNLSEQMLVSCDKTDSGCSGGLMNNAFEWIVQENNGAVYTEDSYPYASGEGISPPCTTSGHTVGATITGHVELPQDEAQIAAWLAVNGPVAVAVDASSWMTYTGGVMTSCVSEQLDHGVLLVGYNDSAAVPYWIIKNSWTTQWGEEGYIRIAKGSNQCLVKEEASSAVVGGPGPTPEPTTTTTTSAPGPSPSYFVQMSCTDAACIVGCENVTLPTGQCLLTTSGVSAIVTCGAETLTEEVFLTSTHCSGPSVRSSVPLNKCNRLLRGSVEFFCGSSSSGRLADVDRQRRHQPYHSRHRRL
#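 Cruzain (1.5 nM) preincubated 15 min at RT with compound in 100 mM sodium acetate pH 5.5, 5 mM DTT, 0.01% Triton X-100. Reaction started with 2 uM Z-FR-AMC; AMC fluorescence (ex 360/em 450 nm) change over 60 s gave rate.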
# RE007 growth inh: qHTS Assay for Inhibitors of the HIV-1 protein Vpr. Potency, µM (titrated, usually from 92.2 µM), without a hit: at the top dose activity change, negative = less growth. S. pombe RE007 Vpr strain, BacTiter-Glo ATP luminescence, 24 h; control for the full effect not named in the record. actives 0.21% (n = 360,000); active = well fitted falling curve with a large enough effect; inconclusive = small, poorly fitted or top-dose-only effect; inactive = no such curve, though single readings can be large or run the other way;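 also: % is scaled to controls: 0 for no effect and ±100 for the full control effect; nearly all actives have a fitted effect of over 50% in size; the assay follows cell death caused by Vpr and the record does not say whether a fall means rescue or toxicity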
#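 Fission yeast strain RE007, carrying one chromosomally integrated HIV-1 vpr copy, was seeded at OD 0.01 in PMG+AL medium with 23 nL pinned compound. After 24 h at 30 °C and 99% humidity, viability was read by BacTiter-Glo luminescence.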
# Cruzain inh noDet: qHTS Assay for Promiscuous and Specific Inhibitors of Cruzain (without detergent). Cruzipain (Trypanosoma cruzi), P25779. purified cruzain, Z-FR-AMC fluorescence, no detergent. Potency, µM, inactives show max response, negative = inhibition, usual class: inhibitors. actives 2.3% (n = 200,000). AID 1476, 2009; active = well fitted curve in the direction sought with a large enough effect; inconclusive = small, poorly fitted or top-dose-only effect, or another doubt; inactive = no such curve, though single readings can be large; an effect the other way counts as inactive or inconclusive;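 also: plate controls were enzyme without inhibitor for no effect and buffer without enzyme for full effect; nearly all actives have a fitted effect of over 40% in size; top concentration of the series not given in the record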
#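 Detergent-free condition (0.00005% Triton X-100) in acetate buffer pH 5.5 with DTT. 1.5 nM enzyme and compound were pre-mixed 15 min, then 2 uM Z-FR-AMC substrate added; reaction progress from fluorescence change between first and third reads (60 s).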
# StopGo reporter: High Throughput Screening for Foot and Mouth Disease Virus Antivirals | AID 1159524, 2015 | actives 1.2% (n = 410,000) | human cells with a luciferase reporter of 2A StopGo recoding; control for the full effect not named in the record | Potency, µM (top dose mostly 57.9 µM), for the others: top-dose signal change, negative = less light; active = well fitted falling curve with a large enough effect; inconclusive = small, poorly fitted or top-dose-only effect; inactive = no such curve, though single readings can be large or run the other way; tested in HEK293T cells; also: % is scaled to controls: 0 for no effect and ±100 for the full control effect; nearly all actives have a fitted effect of over 45% in size; luciferase light after 4 h
# LASV entry inh: qHTS for Inhibitors of binding or entry into cells for Lassa Virus; Lassa virus pseudotype entry inhibition, cell reporter; control for the full effect not named in the record; actives 1.2% (n = 300,000); AID 540256, 2011; Potency, µM (titrated, usually from 37.9 µM), inactives show at the top dose activity change, negative = inhibition, hits mostly inhibitors; active means well fitted inhibition curve with a large enough effect; inconclusive means small, poorly fitted or top-dose-only effect, or effect the other way; inactive means flat fitted curve, though single readings scatter; tested in HEK293 cells; also: % is scaled to controls: 0 for no effect and ±100 for the full control effect; nearly all actives have a fitted effect of over 50% in size; luciferase read-out
# * = called active by the depositor; ? = inconclusive; / = no result given; & = joins results of further samples; ! = not active in a repeat; [ ] = remark or other dose. Unless noted, calls follow the shape of the dose curve; as a rule, active means well fitted rising curve with a large enough effect; inconclusive means small, poorly fitted or top-dose-only effect; inactive means no such curve, though single readings can be large or run the other way. Potency is read from the fitted curve at half-maximal effect. The order is random; 4.7% or so of the library scored in one or more.
SMILES,NS1 inh,SARS PLpro yeast,Marburg entry inh,Cruzain Triton,RE007 growth inh,Cruzain inh noDet,StopGo reporter,LASV entry inh
Cc1ccc(NC(=O)CCN2C(=O)NC(C)(C)C2=O)cc1F,/,2%,-13%[46.1 µM],/,1%,/,3%,-2%
CC(C)(C)NC(=O)C(c1cccs1)N(Cc1ccc(F)cc1)C(=O)c1csnn1 (stereo not given),-9%,-1%,?,/,-2%,/,4%,?
O=C(CSc1ccc2nnc(CCNC(=O)c3ccc(F)cc3)n2n1)NCc1ccco1,19%,7%,?,/,3%,/,-7%,-4%
COc1ccc(N2CCN(C(=O)COCC(=O)O)CC2)cc1,10%,0%,-7%[46.1 µM],/,4%,/,5%,-4%[46.1 µM]
CC(OC(=O)C1CCN(S(=O)(=O)c2ccc(Cl)cc2)CC1)C(=O)NC1CCCCC1C (stereo not given),-11%,-11%,0%,/,-3%,/,-19%,1%
CC1CCCCC1NC(=O)c1ccc(S(=O)(=O)NNC(=O)c2ccncc2)cc1 (stereo not given),-3%,3%,9%[46.1 µM],/,-2%,/,6%,-7%
CN(C)CCN(C(=O)c1cccs1)c1nc2cc3c(cc2s1)OCCO3,-3%,5%,-7%,/,-3%,/,62%[activator],3%
CCN1CCN(c2ncc(C(=O)N3CCCc4ccccc43)c3ccccc23)CC1,-1%,-3%,?,-2.1%,2%,-12%,-11%,-6%
C/C(=N\NC(=S)Nc1ccc(F)cc1)c1ccc2c(c1)OCCO2,18%,-15%,1µM*,?,-29%,?,-10%,?
COc1ccccc1C(=O)NCCC(=O)N(C)Cc1cccs1,/,2%,17%,/,4%,/,1%,4%
COc1ccc(NC(C)C(=O)N/N=C/c2cc(Br)ccc2OC)cc1 (stereo not given),6%,3%,?,/,-5%,/,-9%,?
CCOc1ccc(NC(=O)c2ccc3c(SCC(=O)O)c4c(nc3c2)CCC4)cc1,/,/,26%[46.1 µM],-1.3%,/,-4%,4%,-1%[46.1 µM]
CCCCc1nnc(SCc2cc(=O)c3cc(C(=O)OCC)ccc3[nH]2)n1C,/,/,/,0.3%,/,-4%,5%,?
NC(=O)CNCCC(c1ccccc1)c1ccccc1,-3%,/,11µM*!,3.3%&-1.9%,10%[18.4 µM],5%&1%,-9%,-2%
Fc1ccccc1CNC(=S)NC1CCCCC1,-25%,4%,?,/,-9%,/,23%,?
O=C(Nc1ccccc1)C(Cc1ccccc1)c1ccccc1 (stereo not given),/,/,2%,/,0%,/,-18%,20%
Nc1ccc2ccc3cccc[n+]3c2c1,-36%,-7%,-14%[46.1 µM],/,-1%,/,-9%,-10%[46.1 µM]
Cn1c(=O)c2c(nc(CN3CCN(C(=O)c4ccco4)CC3)n2Cc2ccccc2F)n(C)c1=O,-12%,3%,-6%,0.0%,17%,22%,-20%,/
COc1cc(C)ccc1N(CCCN1C(=O)c2cccc3cccc(c23)C1=O)C(=O)c1cccs1,?,6%,?,-8.5%,8%,?,?,?
Cc1cc2c3c(c1)C1(C(=O)N3C(C)(C)CC2C)C(C#N)=C(N)OC2=C1C(=O)CC(C)(C)C2 (stereo not given),2%,4%,-20%,-1.6%,-12%,29%,0%,-8%
CCSc1nnnn1-c1cccc(C(=O)O)c1,/,/,/,0.8%,/,-9%,-7%,3%[46.1 µM]
CCc1ccc(C2(C)SC(NC(C)=O)=NN2C(C)=O)cc1 (stereo not given),?,5%,4%,1.9%,-9%,-11%,-14%,0%
CCC(Oc1ccccc1)C(=O)NC1C(=O)N2C1SC(C)(C)C2C(=O)O (stereo not given),0%,0%,16%&16%[46.1 µM],/,10%,/,4%,-1%[46.1 µM]
O=C(O)C1CCCCC1C(=O)NCc1ccccn1 (stereo not given),1%,1%,2%[46.1 µM],/,-13%,/,6%,3%
CCOCc1nnc(NC(=O)C2CC(=O)N(C3CCCC3)C2)s1 (stereo not given),5%,-1%,-4%[46.1 µM],/,-15%,/,36%[activator],23%[46.1 µM]
O=S(=O)(O)c1nc2ccccc2[nH]1,6%,-1%,/,/,0%,/,-21%,/
Clc1ccc(-c2nnc(SCc3nc4ccccc4[nH]3)o2)c(Cl)c1,4%,8%,-19%,6.3µM*,3%,3%,-19%,6%
CCCCNC(=O)N(c1c(N)n(Cc2ccccc2)c(=O)[nH]c1=O)C1CCCC1,-2%,-1%,15%,/,-2%,/,-9%,4%
CCOc1ccc(NC(=O)/C(C#N)=C\c2ccc(N3CCCC3)c(C)c2)cc1,/,/,-19%[46.1 µM],/,6%,/,?,-2%[46.1 µM]
O=C(O)CC1COc2ccccc2N1C(=O)c1ccccc1Cl (stereo not given),-6%,0%,-6%[14.2 µM],/,-3%,/,-17%,1%
CN(CCCC(=O)Nc1ccccc1F)S(=O)(=O)c1ccc(F)cc1,15%,1%,8%,/,-17%,/,-1%,-8%
CCN(CC)C(=O)c1ccc(NC(=O)CCCSc2ccccc2)cc1,-5%,-1%,?,/,11%,/,-14%,24%[46.1 µM]
CCOc1ccccc1OCCn1nc2ccccc2n1,-5%,-4%,-2%[46.1 µM],/,4%,/,5%,5%[46.1 µM]
Cc1[nH]n2c(=O)c3c(nc2c1-c1ccccc1)CCCC3,4%,0%,-17%,4.6%,4%,2%,-30%,-1%
COc1ccc(-c2nnc(-c3ccc(Br)o3)o2)cc1OC,-46%,-12%,21%,-1.8%,-11%,?,33%[activator],3%
Cc1cc(C)c(Cn2c(=O)n(-c3ccccc3Cl)c(=O)c3c(C)c(C(=O)N(C)C)sc32)c(C)c1,/,/,/,3.5%,/,-4%,-24%,3%[46.1 µM]
CCN1C(=NCc2ccc(OC)cc2)N[C@@H](c2ccccc2)[C@H](C(=O)OC)[C@H]1C,15%,2%&-2%,/,/,-10%,/,-12%,/
CC1Cc2cc(/C=C3/SC(N4CCC(C(N)=O)CC4)=NC3=O)ccc2O1 (stereo not given),1%,1%,-22%[14.2 µM],/,-14%,/,-7%,?
COc1cc(NS(=O)(=O)c2ccc(NC(=S)NC(=O)c3sc4cc(F)ccc4c3Cl)cc2)nc(OC)n1,-4%,-9%,?,-9.0%,-20%,-12%,12%,-16%
NC(=S)N/N=C/c1ccccc1,3%,2.5µM*,3%,-18%,-19%,3%,-9%,6%
Cc1ccc(NC(=O)C(=O)NCC(c2cccnc2)N2CCN(C)CC2)cc1C (stereo not given),/,/,/,-2.5%,/,-3%,-6%,-17%[46.1 µM]
Cc1cccc(N2CCN(C(=O)Cn3cccc3)CC2)c1C,-56%,-7%,/,-1.3%,-7%,-5%,-12%,/
CCOc1ccc(NC(=O)Cn2c(=O)n(Cc3ccc4c(c3)OCO4)c(=O)c3ccc(C(=O)NC4CCCCC4)cc32)cc1,/,/,4%[46.1 µM],-3.2%,/,-23%,4%,15%[46.1 µM]
CCCCC#Cc1cncc(C(=O)NN)c1,-4%,-1%,-15%[46.1 µM],/,-16%,/,-12%,-18%[46.1 µM]
COCCOC(=O)C1=C(C)NC(=O)NC1c1cn(-c2ccccc2)nc1-c1cccs1 (stereo not given),-7%,12%,-18%,-1.5%,-11%,8%,0%,-9%
CCOC(=O)C1CCN(C=Nc2cc(C)on2)CC1,-7%,-1%,21%,2.0%,-7%,3%,9%,10%
O=C(CSc1nnc(-c2cccs2)n1-c1ccccc1)Nc1ccccc1,3%,2%,-6%,2.6%,-10%,?,-3%,-17%
COc1cc(OC)c(N(C)C(=O)Nc2cn(CC(C)C)c(=O)c3ccccc23)cc1Cl,/,/,/,-2.4%,/,?,34%[activator],19%[46.1 µM]
O=C(Oc1c(-c2ccccc2)c(=O)n2c3c(cccc13)CC2)c1ccccc1,2%,-1%,?,/,4%,/,-17%,-27%[46.1 µM]
CN1CCN(c2ccc(NC(=O)c3cccs3)cc2)CC1,-2%,1%,?,/,8%,/,-14%,?
Cc1cccc(OCc2nnc(SCC(=O)N3CCCC3)n2C)c1,-7%,5%,-1%,7.2%,1%,5%,6%,-7%
S=C(Nc1cccnc1)N1CCc2ccccc21,1%,-2%,/,/,-5%,/,-2%,/
Cc1cccc(C(=O)N2CCCN(C(=O)c3cccc(C)c3)CC2)c1,0%,13%,19%,0.5%,5%,4%,-7%,0%
Cc1ccc(SCCC(=O)NC(C)C)cc1,-9%,5%,?,-0.3%,9%,-7%,27%,-6%
O=C(CSc1nc2[nH]ncc2c(=O)[nH]1)Nc1ccccc1F,/,-2%,-2%[46.1 µM],/,-11%,/,7%,-1%
COc1ccccc1Nc1nc(NCc2ccco2)nc(N)c1[N+](=O)[O-],6%,-2%,0%[46.1 µM],/,5%,/,0%,-24%
CCCc1cc(=O)oc2cc(O[C@@H]3O[C@H](CO)[C@@H](O)[C@H](O)[C@H]3O)ccc12,0%,-1%,-6%,/,4%,/,-7%,/
Cc1ccc(F)cc1NC(=O)Cn1c(=O)nc(-c2ccccc2F)c2cc(Cl)ccc21,/,/,/,-0.4%,/,8%,16%,-5%[46.1 µM]
Oc1ccccc1C1=NOC(O)(C(F)F)C1 (stereo not given),2%,0%,3%,3.4%,9%,-2%,-2%,17%
O=S(=O)(NCc1ccccc1)c1cnc[nH]1,9%,0%,1%[46.1 µM],2.3%,-2%,-2%,-7%,-3%
# Continuation:
SMILES,NS1 inh,SARS PLpro yeast,Marburg entry inh,Cruzain Triton,RE007 growth inh,Cruzain inh noDet,StopGo reporter,LASV entry inh
O=C(CCc1ccccc1)N=C1SC2CS(=O)(=O)CC2N1c1cccc(F)c1 (stereo not given),1%,16%,/,/,11%,/,-2%,/
C/C(=N\NC(=O)c1c(Cl)c(C)nn1C)c1cccc(NC(=O)C2CCCC2)c1,-30%,2%,1%,/,16%,/,-7%,?
Nc1c(Cl)ncnc1NCCO,-2%&-1%,0%&2%,/,/,-1%,/,-10%,/
COc1ccc(-n2c(SCC(=O)C(C)(C)C)nc3ccsc3c2=O)cc1,/,1%,?,/,5%,/,-15%,-17%

# High-throughput results deposited in PubChem by National Center for Advancing Translational Sciences (NCATS).
